Mtb H37Rv – Mycobacterium tuberculosis H37Rv growth inhibition, putative kinase inhibitor library, confirmatory dose response (AID 2842); M. tuberculosis H37Rv growth inhibition; higher % means a stronger effect; some inactives read as strong as hits; inhibition, % at 10 µg/mL; hits with a dose series show IC90 in µg/mL; 5.2% of 24,000 active;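 active = confirmed in a dose series; inconclusive = mostly over 85% at the one dose but not retested; inactive = below 85% or not confirmed; about a fifth of its hits are not listed in these tables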;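 also: bacteria incubated one week before Alamar blue readout; 0% = bacteria only wells and 100% = bacteria with high antibiotic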
Numbers without * were called inactive; ? = inconclusive.

cpd | molecule | Mtb H37Rv
1 | COc1ccc(C2C3=C(CC(C)(C)CC3=O)Nc3nc(SC)[nH]c(=O)c32)cc1 (stereo not given) | -11%
2 | CC(C)CNS(=O)(=O)c1ccc2nc(NC(=O)c3cccnc3)sc2c1 | -2%
3 | Cc1ccc(NC(=O)Cn2cnc3c(cnn3-c3ccccc3)c2=O)cc1Cl | 1%
4 | COc1ccc(C(=O)N2CCN=C2SCc2ccc([N+](=O)[O-])cc2)cc1 | 36%
5 | Cc1cc(SCc2ccccc2C)nc(=O)[nH]1 | -12%
6 | COC(=O)c1ccc(/C=C2\Oc3c(ccc(O)c3CN3CCCC3)C2=O)cc1 | -6%
7 | O=C(Nc1nc(-c2ccccc2)c(-c2ccccc2)s1)c1ccc(N2C(=O)CCC2=O)cc1 | 14%
8 | CCn1c(SCC(C)=O)nc2c1c(=O)[nH]c(=O)n2C | 8%
9 | Nc1ncnc(NNC(=O)CNC(=O)Cc2ccccc2)c1[N+](=O)[O-] | 0%
10 | CCc1ccc(Cc2cnc(NC(=O)c3cc(C)oc3C)s2)cc1 | -1%
11 | CCOC(=O)CSc1nnc(CNC(=O)c2ccccc2F)n1-c1ccccc1OC | -22%
12 | COc1ccc2nc(Nc3nc4ccccc4s3)sc2c1 | 83%
13 | CC1CCN(C(=O)CSc2nc(-c3ccco3)nc3c2c(=O)n(C)c(=O)n3C)CC1 | 6%
14 | Cc1cc(C)cc(C(=O)Nc2c(C(=O)Nc3ccc([N+](=O)[O-])cc3)oc3ccccc23)c1 | 30%
15 | c1ccc2c(c1)CCN(c1nc3cc4c(cc3s1)OCO4)C2 | 4%

(continued)
cpd | molecule | Mtb H37Rv
16 | Nc1c(C(=O)Nc2ccc(Cl)cc2)sc2nc3c(c(-c4ccco4)c12)CCCC3 | 10%
17 | Cc1nnc(NC(=O)CSc2nnc(CNC(=O)C34CC5CC(CC(C5)C3)C4)n2Cc2ccccc2)s1 | -27%
18 | CC1=C(C(=O)Nc2ccccc2)C(c2ccc(Cl)c(Cl)c2)NC(=O)N1 (stereo not given) | 26%
19 | CCOC(=O)c1nn(-c2ccc(Cl)cc2)c(=O)c2c(NC(=O)C(CC)c3ccccc3)scc12 (stereo not given) | 0%
20 | COc1cc(-c2nnc(NC(=O)CCSc3ccccc3)o2)cc(OC)c1OC | 71%
21 | O=C1CCc2cc(S(=O)(=O)NC3CCCC3)cc3c2N1CC3 | -11%
22 | O=C(CS(=O)(=O)c1ccccc1)Nc1nc(-c2ccc3c(c2)CCCC3)cs1 | 1µg/mL*
23 | O=C(CSc1ccc2nnc(-c3cccs3)n2n1)Nc1ccccc1 | 1%
24 | Cc1cccc(Cn2cc(SCC(=O)Nc3nnc(C)s3)c3ccccc32)c1 | 5%
25 | O=[N+]([O-])c1ccc(/C=N/Nc2ncnc3nc[nH]c23)cc1 | 0%
26 | COc1ccccc1-n1c(=O)[nH]c2c(C(N)=O)nc(-c3ccccc3C)nc21 | 5%
27 | Cc1cc(C)c(S(=O)(=O)N2CCN(C(=O)c3ccco3)CC2)c(C)c1 | 0%
28 | COc1cc(OC)c(OC)cc1/C=N/NC(=O)c1cc(-c2ccco2)[nH]n1 | -2%
29 | CCn1c2c(c(=O)[nH]c1=O)C(c1cccc(C)c1)C1=C(COC1=O)N2 (stereo not given) | -1%
30 | O=C(Nc1nnc(-c2ccc(Cl)cc2)o1)c1cccc(C(F)(F)F)c1 | 3µg/mL*

(further entries)
cpd | molecule | Mtb H37Rv
31 | NC(=O)CSc1nc2c(c(=O)n1-c1ccc([N+](=O)[O-])cc1)SCC2 | -9%
32 | O=C(CN1C(=O)/C(=C\c2cccs2)SC1=S)Nc1ccc([N+](=O)[O-])cc1O | -13%
33 | O=C(CSc1nnc(Cc2ccccc2)c(=O)[nH]1)Nc1cccc(C(F)(F)F)c1 | -6%
34 | Cc1cc2c(=O)n(CC(=O)Nc3ccc(F)c(Cl)c3)cnc2s1 | -7%
35 | CCSc1nnc(NC(=O)c2ccc(-c3ccccc3)cc2)s1 | 6%
36 | O=C(Nc1nc2c(s1)CCc1ccccc1-2)c1c(F)cccc1F | 10%
37 | NS(=O)(=O)c1ccc(NC2=C(Cl)C(=O)N(c3cccc(C(F)(F)F)c3)C2=O)cc1 | -5%
38 | COc1cccc(NC(=O)CCN2C(=O)/C(=C\c3ccco3)SC2=S)c1 | -4%
39 | CC(=O)N1CCc2c(sc(NC(=O)Cc3ccccc3)c2C(N)=O)C1 | 9%
40 | CCCCC1CCC(C(=O)Nc2nnc(-c3ccc(F)cc3)s2)CC1 (stereo not given) | 7%
41 | CCOCCSc1nc(N)c(NC(=O)c2ccc(OC)cc2)c(=O)[nH]1 | -2%
42 | CSc1nc2ccc3nc(NC(=O)c4cccc(Br)c4)sc3c2s1 | 0%
43 | O=C(N=Nc1c(O)[nH]c2c(Br)cc(Br)cc12)c1ccco1 | 97%
44 | COc1ccc(NC(=O)CSC2=NC(C)(C)Nc3ccccc32)cc1 | 0%
45 | COc1ccc(-c2nnc3ccc(SCC(=O)Nc4ccc(NC(C)=O)cc4)nn23)cc1 | -6%

Other compounds
cpd | molecule | Mtb H37Rv
46 | CCCCc1ccc(NC(=O)CSc2nnc(C)c(=O)n2N)cc1 | ?
47 | O=C(c1ccccc1F)N1CCN(c2ccc(NCC3CCCO3)nn2)CC1 (stereo not given) | 2%
48 | COc1ccc2cc(CCNC(=O)c3cc(OC)c(OC)c(OC)c3)c(=O)[nH]c2c1 | 7%
49 | Cc1cc(OC(=O)c2ccc(F)cc2)c([N+](=O)[O-])c(=O)[nH]1 | 0%
50 | C=C1Cn2c(nnc2-c2sc3ccccc3c2Cl)S1 | 62%
51 | CNS(=O)(=O)c1ccc(NC(=O)c2ccc(Br)o2)cc1 | 2%
52 | Cn1c(Cn2c(=O)sc3ccccc32)nnc1SCc1ccc(C(F)(F)F)cc1 | -5%
53 | O=C(Nc1nnc(-c2ccc(F)cc2)s1)c1ccco1 | 5%
54 | CCCCC(=O)Nc1nnc(-c2ccccc2Cl)s1 | 15%
55 | COc1ccc(OC)c(NC(=O)c2oc3ccccc3c2NC(=O)c2ccc(C)cc2)c1 | -13%
56 | COc1ccc(/C=N/N=C2/NC(=O)C(Cc3cccc(Cl)c3Cl)S2)cc1 (stereo not given) | -20%
57 | CCOC(=O)CSc1nc2ccccc2c(=O)[nH]1 | -9%
58 | CCCc1cc(=O)[nH]c2nnc(SCC(=O)NC)n12 | -3%
59 | Cc1c(Cl)cccc1NC(=O)CSc1nnc(C)c(=O)n1N | -2%
60 | O=C(CC1CCS(=O)(=O)C1)Nc1cc(Cl)cc(Cl)c1 (stereo not given) | -19%

Reformatted: entries from further up.
[54] CCCCC(=O)Nc1nnc(-c2ccccc2Cl)s1
  Mtb H37Rv: 15%
[55] COc1ccc(OC)c(NC(=O)c2oc3ccccc3c2NC(=O)c2ccc(C)cc2)c1
  Mtb H37Rv: -13%
[56] COc1ccc(/C=N/N=C2/NC(=O)C(Cc3cccc(Cl)c3Cl)S2)cc1 (stereo not given)
  Mtb H37Rv: -20%
[57] CCOC(=O)CSc1nc2ccccc2c(=O)[nH]1
  Mtb H37Rv: -9%

Further records
cpd | molecule | Mtb H37Rv
61 | O=C(Nc1ccc(F)cc1)c1c(O)c2ccccc2[nH]c1=O | -8%
62 | Cn1c(=O)c2c(nc(CN3CCN(c4ccccc4)CC3)n2CCN2CCOCC2)n(C)c1=O | -6%
63 | Cc1cccc(NC(=O)CSc2nc3c(c(=O)n2-c2ccc(Cl)cc2)SCC3)c1C | 2%
64 | Cc1nnc(NC(=O)c2cccn(OCc3ccccc3F)c2=O)s1 | -4%
65 | COC(=O)c1c(C)oc2ccc(NS(=O)(=O)c3ccc(OC)cc3)cc12 | 12%
66 | CN(Cc1ccccc1)S(=O)(=O)c1ccc(C(=O)Nc2ccccc2C#N)cc1 | 79%
67 | CCCCNS(=O)(=O)c1ccc2[nH]c(=O)cc(C)c2c1 | -11%
68 | Cc1cc(C)nc(SCc2nnnn2-c2ccccc2)n1 | -11%
69 | Nc1nc(SCC(=O)NC2CCCCC2)[nH]c(=O)c1NC(=O)c1ccc(F)cc1 | 9%
70 | O=c1[nH]c(=S)[nH]nc1-c1ccccc1 | -4%
71 | Cc1cc(C)cc(-n2nnc3c(=O)n(Cc4cccc(F)c4)cnc32)c1 | 9%
72 | CCOc1ccccc1C(=O)Nc1nnc(-c2ccccc2OC)s1 | -8%
73 | CCOC(=O)c1nn(-c2ccccc2)c(=O)c2c(NC(=O)c3cccc(C(F)(F)F)c3)scc12 | -3%
74 | O=C(CCCCl)Nc1c(C(=O)Nc2ccccc2F)oc2ccccc12 | 13%
75 | COC(=O)Cn1c(=NC(=O)CSCC(=O)Nc2cc(C)on2)sc2cc(OC)ccc21 | -10%

The last three records of the part above open the next one.
cpd | molecule | Mtb H37Rv
73 | CCOC(=O)c1nn(-c2ccccc2)c(=O)c2c(NC(=O)c3cccc(C(F)(F)F)c3)scc12 | -3%
74 | O=C(CCCCl)Nc1c(C(=O)Nc2ccccc2F)oc2ccccc12 | 13%
75 | COC(=O)Cn1c(=NC(=O)CSCC(=O)Nc2cc(C)on2)sc2cc(OC)ccc21 | -10%
76 | COc1cc(-c2oc3ccc(C)cc3c(=O)c2O)cc(OC)c1OC | -4%
77 | Cc1cc(NC(=O)c2cnc3sccn3c2=O)no1 | -2%
78 | CCN1CCN(CC(=O)Nc2cc(C)cc(C)c2)C(=O)C1=O | -3%
79 | CCCCc1ccc(NS(=O)(=O)c2cc3c4c(c2)CCC(=O)N4CCC3)cc1 | 58%
80 | Cc1cccc(-n2ncc3c(N(C)C4CCCCC4)ncnc32)c1 | 21%
81 | CN1C(=O)c2cccc(NC(=O)COc3ccc(Cl)cc3Cl)c2C1=O | -10%
82 | Cc1ccc(NC(=O)c2oc3ccccc3c2NC(=O)c2ccccc2F)cc1C | 8%
83 | O=C1C(Cl)=C(NCCO)C(=O)N1c1ccc(F)c(Cl)c1 | 24%
84 | O=C(O)c1ccc(Nc2nc(-c3ccc([N+](=O)[O-])cc3)nc3ccccc23)cc1 | 12%
85 | O=C(CSc1nnc2ccc(-c3cccs3)nn12)Nc1ccc2c(c1)OCCO2 | -15%
86 | CCOc1ccccc1NC(=O)c1oc2ccccc2c1NC(=O)Cc1ccc(F)cc1 | -10%
87 | CCOC(=O)c1nn(-c2ccc(F)cc2)c(=O)c2c(NC(=O)c3ccc(S(=O)(=O)N4CCCC4)cc3)scc12 | 7%
88 | O=C(NNc1ncnc2c1cnn2-c1ccccc1)c1cccc([N+](=O)[O-])c1 | 70%
89 | Nc1nc(-c2cccc([N+](=O)[O-])c2)cs1 | 79%
90 | O=C(Nc1cc(Cl)ccc1Cl)c1ccc(S(=O)(=O)N2CCCCC2)cc1 | 1%

Further records
cpd | molecule | Mtb H37Rv
91 | COc1cccc(/C=C2/SC(=S)N(C(CC(=O)O)C(=O)O)C2=O)c1OC (stereo not given) | -22%
92 | O=C(Cn1cnc2c(nnn2-c2ccccc2)c1=O)NCc1ccc2c(c1)OCO2 | -4%
93 | COc1ccc(CC(=O)Nc2c3c(nn2C(C)(C)C)CS(=O)C3)cc1 (stereo not given) | 15%
94 | Cn1c(=O)[nH]c(=O)c2c1nc(N1CCCCCC1)n2CCSc1nc2ccccc2s1 | 15%
95 | CCOc1ccccc1-n1c(C)cn2c3c(=O)n(CC(N)=O)c(=O)n(C)c3nc12 | 2%
96 | Cc1ccc(N2CC(NC(=O)NCc3ccco3)CC2=O)cc1 (stereo not given) | 3%
97 | Nc1c(C(=O)Nc2ccc(Br)cc2)sc2nc(-c3ccccc3)cc(-c3ccco3)c12 | 8%
98 | NC(=O)c1ccsc1NC(=O)c1ccco1 | 16%
99 | COc1ccc2sc(Nc3ccc(F)cc3F)nc2c1 | 9%
100 | NC(=O)c1ccsc1NC(=O)c1ccc(S(=O)(=O)N2CCCCCC2)cc1 | 80%
101 | Cc1ccc(C(=O)Nc2nc(-c3ccc4c(c3)OCCO4)cs2)cc1C | 29%
102 | O=C(CSc1ccc2nnc(-c3ccc(F)cc3)n2n1)Nc1cccc(F)c1 | -8%
103 | COC(=O)c1ccc(CSc2ccc3nnc(-c4cccc(F)c4)n3n2)o1 | 5%
104 | CC(=O)Nc1ccc(NC(=O)CSc2nnc(CNC(=O)c3ccccc3)o2)cc1 | -9%
105 | O=C(CSc1nnc2ccc(-c3ccccn3)nn12)Nc1ccc2c(c1)OCCO2 | -1%

Next results follow:
cpd | molecule | Mtb H37Rv
106 | O=C(Nc1ccc(Oc2ccc(Cl)cc2)cc1)c1cnc2n(c1=O)CCS2 | -6%
107 | CCOc1cc(/C=N/Nc2nncc(=O)[nH]2)ccc1O | -4%
108 | C=CCn1c(=O)c2c(nc(N/N=C(\C)c3ccc(O)cc3)n2C)n(C)c1=O | -1%
109 | O=C(Nc1nnc(-c2cccc([N+](=O)[O-])c2)s1)c1ccc(S(=O)(=O)N2CCCCC2)cc1 | 2%
110 | Cc1cccc(C2C3=C(COC3=O)Nc3c2c(=O)[nH]c(=O)n3CC(C)C)c1 (stereo not given) | -1%
111 | O=C(CSc1ccc2nnc(-c3ccc(Cl)cc3)n2n1)Nc1ccc(F)cc1F | 3%
112 | Cc1ccc(-c2nnc3ccc(SCC(=O)N4CCc5ccccc54)nn23)cc1 | 16%
113 | COc1cccc2sc(Nc3nc(-c4cccnc4)cs3)nc12 | 54%
114 | CCOc1nc(N)c(C#N)c(-c2ccc(OCc3ccc(C)cc3)c(OC)c2)c1C#N | -2%
115 | CCOC(=O)CSc1nnc2[nH]c(=O)cc(C)n12 | 6%
116 | Cc1cc(SCc2ccc([N+](=O)[O-])cc2)nc(=O)[nH]1 | -3%
117 | CCS(=O)(=O)c1ccc(C(=O)Nc2nc3ccc(Br)cc3s2)cc1 | -8%
118 | Cc1cccc(C(=O)Oc2coc(CSc3nccc(C)n3)cc2=O)c1 | 17%
119 | O=C1CC(NS(=O)(=O)c2cccnc2)CN1c1ccccc1 (stereo not given) | 5%
120 | CSc1nc2ccc3nc(NC(=O)COc4ccc(Cl)cc4)sc3c2s1 | -10%

Taken from above:
Mtb H37Rv with cpd 114 → -2%
Mtb H37Rv with cpd 110 → -1%
Mtb H37Rv with cpd 112 → 16%
Mtb H37Rv with cpd 117 → -8%

Some of the compounds tested; the hit share may differ from the screen's.
